KCNQ2 block – KCNQ2 potassium channel inhibitors, primary screen, cell-based, CHO-K1, FluxOR thallium flux, B-score (AID 2156); Potassium voltage-gated channel subfamily KQT member 2 (Rattus norvegicus), O88943; 20 min; active compounds read low; only compounds with negative scores are shown here; some inactives read as strong as hits; B-score at 10 µM; 1.1% of 310,000 active;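 active means fluorescence ratio B-score at most minus 3 library SDs, with starting brightness B-score within 2 library SDs, cut at about -5.5 in these data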
Target sequence (O88943 whole entry, looked up): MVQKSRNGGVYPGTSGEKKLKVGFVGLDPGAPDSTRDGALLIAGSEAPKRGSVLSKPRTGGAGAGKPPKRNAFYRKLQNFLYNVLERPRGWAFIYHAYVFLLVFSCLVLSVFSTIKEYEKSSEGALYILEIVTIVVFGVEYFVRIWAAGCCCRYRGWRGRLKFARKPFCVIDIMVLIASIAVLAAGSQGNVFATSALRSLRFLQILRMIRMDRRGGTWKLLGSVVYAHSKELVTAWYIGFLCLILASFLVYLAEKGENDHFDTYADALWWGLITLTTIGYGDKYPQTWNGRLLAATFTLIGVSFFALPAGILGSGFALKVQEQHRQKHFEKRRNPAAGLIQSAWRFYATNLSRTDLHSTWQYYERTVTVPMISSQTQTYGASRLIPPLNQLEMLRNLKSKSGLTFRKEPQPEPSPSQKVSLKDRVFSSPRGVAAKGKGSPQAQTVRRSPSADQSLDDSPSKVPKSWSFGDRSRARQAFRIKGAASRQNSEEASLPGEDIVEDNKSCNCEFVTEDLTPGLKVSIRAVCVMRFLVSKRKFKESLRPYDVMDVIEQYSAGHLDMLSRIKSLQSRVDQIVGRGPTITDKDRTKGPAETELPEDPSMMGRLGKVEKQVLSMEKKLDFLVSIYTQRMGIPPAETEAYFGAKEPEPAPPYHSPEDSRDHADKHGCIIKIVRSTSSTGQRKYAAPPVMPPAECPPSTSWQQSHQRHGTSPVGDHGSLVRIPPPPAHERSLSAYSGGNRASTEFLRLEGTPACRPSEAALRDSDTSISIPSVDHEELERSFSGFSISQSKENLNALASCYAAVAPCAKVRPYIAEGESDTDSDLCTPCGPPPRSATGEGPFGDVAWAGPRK
KCNQ2 block baseline – further read-out of KCNQ2 block, marked with its call; B-score; measured here: initial fluorescence intensity artifact check;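 brightness before thallium and not channel activity; 0 = typical well and far values either way flag optical interference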
* marks the source's active call; other numbers are inactive results; i = inactive. Only part of the results is shown; count on the stated rates, not on these rows.

| molecule | KCNQ2 block | KCNQ2 block baseline |
| --- | --- | --- |
| COCCNC(=O)CSc1ccccc1C(=O)O | i | 0.57 |
| Cc1nn(C)cc1CNC(=O)c1cccc(Br)c1 | i | 0.88 |
| O=C1c2cccnc2C(=O)N1Cc1ccc2c(c1)OCO2 | i | 0.98 |
| CCOC(=O)c1[nH]c(C)c(/C(O)=C2\C(=O)C(=O)N(CCN(C)C)C2c2ccncc2)c1C (stereo not given) | i | 1.4 |
| CC(=O)c1cccc(NC(=O)C2CC(c3ccc(F)cc3)=NO2)c1 (stereo not given) | i | -0.32 |
| CCCn1nnnc1SCC(=O)N1CCN(C(=O)c2ccco2)CC1 | i | -2 |
| O=[N+]([O-])c1ccc(S(=O)(=O)NCC(c2ccco2)N2CCc3ccccc3C2)cc1 (stereo not given) | i | -0.56 |
| Cc1ccc(C23CCC(=O)N2C(C(=O)O)CS3)c(C)c1 (stereo not given) | i | 0.92 |
| Cc1ccc(C2NC(=O)NC(O)(C(F)(F)F)C2C(=O)c2cccs2)o1 (stereo not given) | i | 0.32 |
| COC(=O)CCC(=O)Nc1sc(C)c(C)c1C(N)=O | i | 1 |
| Cc1nn(-c2ccccc2)c2c1C(c1ccc(Cl)cc1)N(c1ccccc1)C(=O)N2 (stereo not given) | -7.6* | 0.76* |
| CC(=O)N/C(=C\c1ccc(F)cc1)C(=O)NC(Cc1ccccc1)C(=O)O (stereo not given) | i | 1.3 |
| Cc1ccc(/C=N\NC(=O)C2COc3cc4ccccc4cc3O2)o1 (stereo not given) | i | 1.4 |
| Cc1ccc(SCCOCCN2CC(C)OC(C)C2)cc1 (stereo not given) | i | 0.43 |
| CCN(CC)S(=O)(=O)c1cc(C(=O)Oc2cccc(-c3cnc4ccccc4n3)c2)ccc1OC | i | -0.01 |
| COc1ccccc1NC(=O)Nc1nc(CC(=O)Nc2ccc(F)cc2)cs1 | i | -2.4 |
| COc1ccc(NC(=O)CCN2CCCCCC2)c(OC)c1 | i | -0.45 |
| CCCCOc1ccc(CNn2c(C)nc3ccccc3c2=O)cc1 | i | 0.33 |
| O=S(=O)(Nc1ccncc1)c1ccccc1 | i | 1 |
| CCOc1cccc(/C(O)=C2/C(=O)C(=O)N(CCN3CCOCC3)C2c2cccnc2)c1 (stereo not given) | i | 1.2 |
| c1ccc(-c2cnc(-c3ccccc3)nc2)cc1 | i | 1.2 |
| CC1(C)N=C(/C=N/O)C=[N+]1[O-] | i | 2.9 |
| CC(NC(=O)c1cccc(OC2CCN(C(=O)C3CC3)CC2)c1)c1ccc(F)cc1 (stereo not given) | i | 0.42 |
| Cc1ccc(OCc2ccccc2Br)c([N+](=O)[O-])n1 | i | -1.2 |
| CCOC(=O)c1c(C)[nH]c(C(=O)COC(=O)CNC(=O)c2ccc(Cl)cc2)c1C | i | 2.4 |
| COc1ccc(C(=S)N2CCOCC2)cc1OC(=O)c1cc([N+](=O)[O-])c(C)c([N+](=O)[O-])c1 | i | -1.6 |
| O=C(CSc1ccc(Cl)cc1)N1N=CCC1c1ccccc1 (stereo not given) | i | -0.37 |
| COCCCn1c(SCC(=O)Nc2cccc(C(=O)OC)c2)nnc1-c1ccncc1 | i | -1.8 |
| Cc1cc(C)c(S(=O)(=O)NCc2ccc3c(c2)OCO3)c(C)c1 | i | -1.4 |
| COc1cc(CN2CCN(C(=O)c3cccc4ccccc34)CC2)cc(OC)c1OC | i | 1.6 |
| COc1ccccc1Sc1nc(-c2ccccc2)ncc1OC | i | 1.3 |
| CN(C)S(=O)(=O)Oc1ccsc1C(=O)Nc1ccccc1Cl | i | -0.11 |
| COc1ccc(NC(=O)CC2C(=O)N(C)C(=S)N2CCc2ccc(F)cc2)cc1 (stereo not given) | i | 0.26 |
| CCOC(=O)Nc1ccc(NS(=O)(=O)c2ccc(C)cc2)cc1 | i | 0.01 |
| Cc1ccc2cccc(SCC(=O)Nc3ccc(F)cc3)c2n1 | i | 1.2 |
| CC(=O)N1CCC(C(=O)OCc2ccc(Cl)cc2)(c2ccccc2)CC1 | i | 0.94 |
| COc1ccc(-n2c(=O)cc(N3CCc4ccccc43)[nH]c2=O)cc1 | i | 1.8 |
| O=C1c2ccccc2C(=O)N1COc1ccc(S(=O)(=O)N2CCOCC2)cc1[N+](=O)[O-] | i | -0.04 |
| COc1ccc(Cl)cc1NC(=O)C1CCN(C(=O)C2CC(=O)N(c3ccc(C)cc3)C2)CC1 (stereo not given) | i | -0.69 |
| CCCC(=O)Nc1nc(C)c(-c2csc(Nc3cc(OC)ccc3OC)n2)s1 | i | -2.2 |
| CC1(C)Oc2ccc3ccc(=O)oc3c2C(N2CCCCC2)C1O (stereo not given) | i | 2 |
| CCOC(=O)C(O)(NC(=O)c1cccnc1)C(F)(F)F (stereo not given) | i | 0.18 |
| CC(=O)N/C(=N/c1nc(C)cc(C)n1)Nc1ccc(C)cc1Cl | i | -0.17 |
| O=C(c1ccco1)N1CCN(S(=O)(=O)c2ccc([N+](=O)[O-])cc2)CC1 | i | 0.52 |
| Cc1ccc(Nc2c(-c3ccc(N4CCOCC4)cc3)nc3ncccn23)c(C)c1 | i | -0.68 |
| CCC(C(=O)Nc1ncc(C)s1)c1ccccc1 (stereo not given) | i | -0.23 |
| O=[N+]([O-])c1cc(Br)c(O)c(C=Nc2ccc(N3CCOCC3)cc2)c1 | i | 1.1 |
| O=[N+]([O-])c1ccc(N2CCCC2)cc1NC(c1ccccc1)c1ccccc1 | i | -1.6 |
| CC(C)(C)c1cc(C(=O)N/N=C/c2ccc(F)cc2)n(-c2ccccc2)n1 | i | -1.3 |
| Cc1ccc(S(=O)(=O)N2CCN(CC3CC4C=CC3C4)CC2)cc1 (stereo not given) | i | -0.47 |

New compounds follow
| molecule | KCNQ2 block | KCNQ2 block baseline |
| --- | --- | --- |
| Cc1cc(NC(=O)c2ccc(S(=O)(=O)N3CCc4ccccc43)cc2)no1 | i | -0.45 |
| COc1ccc(NC(=O)COC(=O)c2c3c(nc4ccccc24)CCCC3)cc1Cl | i | -0.47 |
| COc1ccccc1C(C)NC(=O)c1ccccc1SCC(=O)N1CCCC1 (stereo not given) | i | -0.65 |
| CCn1ncc(Br)c1C(=O)Nc1cccc(F)c1 | i | 0.03 |
| COC(=O)c1[nH]c2ccc(F)cc2c1NC(=O)CCN1CCN(C(=O)c2ccco2)CC1 | i | -0.1 |
| CCCCCCN(C(=O)CCCCCN1C(=O)NC(c2ccc([N+](=O)[O-])cc2)C(C(=O)OCc2ccccc2)=C1C)C(C(=O)NCCCC)c1ccc(OCC(=O)OC)c(C(=O)OC)c1 (stereo not given) | i | 0.66 |
| Cc1ccc(-c2c(C(=O)N(C)Cc3ccccc3)oc(=O)c3ccccc23)cc1 | i | 1.8 |
| Cc1sc2ncn(CC(=O)NCc3ccco3)c(=O)c2c1-c1ccc(F)cc1 | i | 3.6 |
| COc1cc(/C=C2\C(=O)N(c3ccc(S(N)(=O)=O)cc3)N=C2C)ccc1OC(=O)c1ccco1 | i | 2.5 |
| COc1ccccc1P(=O)(c1ccccc1)c1ccccc1 | i | 0.01 |

The results go on.
Molecule,KCNQ2 block,KCNQ2 block baseline
CC1(C(=O)Nc2cccc3ccccc23)CC1(Br)Br (stereo not given),i,-0.04
CCCN1CNC(=S)N(c2ccccc2OC)C1,i,-0.6
CCC(=O)N(C)CCc1cc2c(c(OC)c1/C=N/NC(=O)c1ccc(Br)cc1)OCO2,i,-1.1
O=C(COC(=O)CCc1ccc(S(=O)(=O)N2CCOCC2)cc1)NC1CCCCCC1,i,1.2
CN(C)CCOCCOc1ccccc1-c1ccccc1,i,1.6
CC(C)(C)c1ccc(C(=O)Nc2ncn[nH]2)cc1,i,-0.03
C/C(CC(=O)Nc1ccc(C)c(Cl)c1)=N\NC(=O)c1ccco1,i,-0.99
O=C(NNC(=S)NC1CCCCC1)c1cccc(S(=O)(=O)Nc2ccccc2Cl)c1,i,-0.26
CCN1C(=O)C(Cc2nc3ccccc3c(=O)n2C)c2ccccc21 (stereo not given),i,2.9
COc1ccc(NC(=O)CN(C)C(=O)c2cc(-c3ccncc3)nc3ccccc23)cc1,i,2.7
Cc1ccc(S(=O)(=O)NCC[C@@]2(C)C3CCC2(C)C(=O)C3)cc1 (stereo not given in full),i,3
CN=C1SC(CC(=O)Nc2sc3c(c2C#N)CCCC3)C(=O)N1C (stereo not given),i,1.3
O=S(=O)(c1ccccc1)n1cc(-c2ccccn2)c(N2CCOCC2)n1,i,1.6
Cc1ccc(Cl)cc1N1CCN(S(=O)(=O)c2cccc(S(=O)(=O)N3CCCC3)c2)CC1,i,-0.35
Cc1ccc(NC(=O)c2ccc(OC(=O)C(C)Oc3ccc(Cl)cc3C)cc2)cc1 (stereo not given),i,0.87
O=c1n(Cc2ccccc2F)c2ccccc2n1Cc1ccccc1F,i,2.8
COc1cccc(C(=O)Oc2cc(C)[nH]c(=O)c2[N+](=O)[O-])c1,i,0.33
COCC1CCCN(Cc2cn(-c3ccccc3)nc2-c2ccc3c(c2)OCO3)C1 (stereo not given),i,0.91
COCCNC(=S)N1CCN(S(C)(=O)=O)CC1,i,0.99
Fc1ccc(-n2c(Cc3ccccc3)nnc2SCc2nc(-c3cccs3)no2)cc1,i,-2.4

Arranged by heavy-atom count (low to high): some entries from above.
Molecule,KCNQ2 block,KCNQ2 block baseline
CCCN1CNC(=S)N(c2ccccc2OC)C1,i,-0.6
CC1(C(=O)Nc2cccc3ccccc23)CC1(Br)Br (stereo not given),i,-0.04
CN=C1SC(CC(=O)Nc2sc3c(c2C#N)CCCC3)C(=O)N1C (stereo not given),i,1.3
O=S(=O)(c1ccccc1)n1cc(-c2ccccn2)c(N2CCOCC2)n1,i,1.6

Later entries
Molecule,KCNQ2 block,KCNQ2 block baseline
Cc1ccc(-n2nnnc2SCC(=O)NC2CCCc3ccccc32)c(C)c1 (stereo not given),-6.5*,-0.46*
CCOc1ccc(CCNS(=O)(=O)c2c(C)n[nH]c2C)cc1OCC,i,-0.09
Cn1c(=O)c2cc(S(=O)(=O)NCCC(=O)NCc3ccccc3Cl)ccc2n(C)c1=O,i,-0.97
Cc1ccc(NC(=O)/C(C#N)=C/c2ccccc2C(F)(F)F)cc1,i,0.76
Cc1ccccc1-c1nc(CN2CCC(C(=O)NCCCN3CCCC3)CC2)c(C)o1,i,1.1
O=S(=O)(c1ccccc1)N1CCC(O)(CSc2ccc(Cl)cc2)CC1,i,0.88
CN1CCN(C2Cc3cc(F)ccc3Sc3ccc(Cl)cc32)CC1 (stereo not given),i,0.59
OC(CNCc1ccccc1)(c1ccc(F)cc1)c1ccc(F)cc1,i,1.6
CC(C(=O)Nc1ccccc1C(=O)O)n1c(C(F)(F)F)nc2ccccc21 (stereo not given),i,-1.1
O=C(c1ccccc1Cl)N1CCC(O)(c2cccnc2)CC1,i,0.68
CCOC(=O)CSc1nc2cc(OC)ccc2cc1C#N,i,1.2
CC(C)N(c1nnc(N)s1)C(C)C,i,0.91
Cc1cc(C)c(N=C2CCCN2Cc2ccccc2)c(C#N)c1,-8.8*,-0.05*
O=C(COC(=O)c1ccc2ccccc2c1)NCCCc1ccccc1,i,-0.66
Cc1nnc(NC(=O)CCS(=O)(=O)Cc2ccccc2)s1,i,-0.92
CN1CCN(CC(=O)Nc2ccc(OC(F)(F)F)cc2)CC1,i,2.6
CC(=O)Nc1ccc(NC(=O)CCC(=O)OCC(=O)c2cccc([N+](=O)[O-])c2)cc1,i,-0.78
O=C(O)CCN1C(=O)c2ccc(NC(=O)COc3ccccc3)cc2C1=O,i,0.03
CC(C)(C)C(=O)COC(=O)c1cc(-c2cccnc2)nc2ccccc12,i,-1.2
O=C(OCCN1CCOCC1)c1ccc(OCCN2CCOCC2)cc1,i,-0.1

Quoted from the listing:
`O=C(OCCN1CCOCC1)c1ccc(OCCN2CCOCC2)cc1` – KCNQ2 block baseline = -0.1
`O=S(=O)(c1ccccc1)N1CCC(O)(CSc2ccc(Cl)cc2)CC1` – KCNQ2 block baseline = 0.88
`Cc1nnc(NC(=O)CCS(=O)(=O)Cc2ccccc2)s1` – KCNQ2 block baseline = -0.92

Single records, as listed above. Order of values: KCNQ2 block	KCNQ2 block baseline
Entry for `CC(C)(C)C(=O)COC(=O)c1cc(-c2cccnc2)nc2ccccc12` → i	-1.2
Entry for `Cc1ccc(/C=N\NC(=O)C2COc3cc4ccccc4cc3O2)o1` (stereo not given) → i	1.4

Remaining list, next part
Molecule,KCNQ2 block,KCNQ2 block baseline
Cc1ccc(-n2nc3c(=O)n(CCCC(=O)NCc4ccccc4Cl)nc(C)c3c2C)cc1,i,-0.5
COc1ccccc1C(=O)Nc1ccc2ccccc2c1,i,-0.22
Cc1ccc(NC(=O)CN(C)C(=O)COc2ccc(C(=O)c3ccc(F)cc3)cc2)cc1,i,0.01
COc1cccc(N2CCN(Cc3ncc(-c4ccccc4)o3)CC2)c1,i,0.04
O=C(O)CN1C(=O)CC(c2ccccc2)CC1=O,i,-0.44
O=C(NCC(c1ccco1)N1CCN(c2ccccc2)CC1)c1ccco1 (stereo not given),i,0.75
CCS(=O)(=O)N1CCC(C(=O)NCCN2CCOCC2)CC1,i,-0.24
COc1ccccc1NC(=O)C1CC(=O)N(c2ccc(F)cc2)C1 (stereo not given),i,-0.93
COC(=O)c1sc2nc3c(cc2c1N)COC(C)(C)C3,i,-1.1
COc1ccc(NC(=O)c2ccsc2NC(C)=O)cc1,i,0.95
COc1ccccc1NC(=O)CSc1nnc(CSc2nc(C)cc(C)n2)o1,i,-0.01
Cc1ccc(NC(=O)CN2C(=O)N/C(=C/c3ccc(C)o3)C2=O)cc1,i,-1.4
COc1ccc(N2CCN(C(=O)CSc3nnc(C)c(=O)[nH]3)CC2)cc1,i,0.32
CC(C)(C)C(=O)N1N=C(c2ccc(NS(C)(=O)=O)cc2)CC1c1cccs1 (stereo not given),i,-0.08
Cc1cnc(CNC(=O)CC2C(=O)NCCN2Cc2ccccc2C(F)(F)F)cn1 (stereo not given),i,2.4
CC(C)(C)NC(=O)CSc1nc2ccc(Nc3nc(N4CCOCC4)nc(N4CCOCC4)n3)cc2s1,i,-0.59
COc1ccc(-c2ccnc3cc(C(=O)O)nn23)cc1,i,2.8

Bioassay records as filed in PubChem BioAssay.
